# Screens: PubChem, National Center for Advancing Translational Sciences (NCATS)
# HPGD block: inhibitors of human 15-hydroxyprostaglandin dehydrogenase (HPGD) | P15428 | purified HPGD, NADH fluorescence kinetic, PGE2 substrate | Potency, µM, for inactives: at the highest dose activity change, negative = inhibition, most hits filed as inhibitors | actives 4.3% (n = 150,000) | AID 894; active = well fitted inhibition curve with a large enough effect (not every such curve was filed as active); inconclusive = small, poorly fitted or top-dose-only effect, or another doubt; inactive = no such curve, though single readings can be large or run the other way;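 further: top concentration of the series not given in the record; plate controls included wells without enzyme; inactives centre near -10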
# Target sequence (P15428 whole entry, looked up): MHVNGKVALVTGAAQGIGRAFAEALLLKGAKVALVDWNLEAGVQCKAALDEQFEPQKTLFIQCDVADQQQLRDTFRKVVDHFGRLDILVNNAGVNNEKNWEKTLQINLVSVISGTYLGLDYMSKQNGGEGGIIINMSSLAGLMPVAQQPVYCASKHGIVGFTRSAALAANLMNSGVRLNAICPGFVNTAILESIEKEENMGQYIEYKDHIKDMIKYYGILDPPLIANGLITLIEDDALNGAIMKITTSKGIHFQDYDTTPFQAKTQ
#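 NADH formation kinetics: reaction with 30 uM PGE2 and 1 mM NAD+ (final), 20 nM enzyme, Tris-HCl pH 8 with Tween 20, after 15 min compound preincubation at room temperature. Fluorescence change, last versus first of five reads.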
# Active calls of the source: *; ? = inconclusive; & = joins results of further samples. On the % scale 0 is the no-effect control and ±100 the full control effect; potency means the concentration at half of the fitted maximal effect. Not all compounds are listed; rates above refer to the full screens.
SMILES,HPGD block
O=C(NCc1cccnc1)C1CC(=O)N(c2ccc(F)cc2)C1 (stereo not given),-10%
CCCCCCCC/C=C/CCCCCCCCOP(=O)([O-])OCC[N+](C)(C)C,-9%
CCC(=O)N1CCc2cc(S(=O)(=O)CCC(=O)NCCC3=CCCCC3)ccc21,7%
O=C(O)c1ccc(CNCc2ccc(Cl)cc2)cc1,-2%
COC(=O)c1ccccc1OC(=O)c1cccnc1,-1%
CCn1c(=O)cc(OCC(=O)NCCC(C)C)c2ccccc21,?
Cc1cccc(NC(=O)/C(=C\c2ccco2)NC(=O)c2cccs2)c1,-5%
Cc1cc(C)nc(N(C#N)CC(=O)N(c2ccccc2)C(C)C)n1,-8%
Cc1cc(=O)n(-c2ccccc2)n1C,-20%&-13%
CC1CCCN(CCOCCOc2ccc(Cl)cc2Br)C1 (stereo not given),-10%
Cc1cc(C)n2c(SC/C(O)=C(\C#N)c3nc4ccccc4[nH]3)nnc2n1,?
O=C(NCc1ccccn1)c1cc2n(n1)C(C(F)(F)F)CC(c1ccco1)N2 (stereo not given),-16%
CC1CCCCN1CCn1cnc2c([nH]c3ccccc32)c1=O (stereo not given),-16%
Cc1c(C(=O)NCCC2=CCCCC2)oc2ccc(S(=O)(=O)N3CCC4(CC3)OCCO4)cc12,-18%
Cc1ccccc1OCC(=O)OCC(=O)NCc1cccs1,?
COc1ccc2c(c1)CCC1[C@@H]2CCC2(C)[C@@H](NCCCCCCN3C(=O)C=CC3=O)CC[C@@H]12 (stereo not given in full),-5%
CCCCCn1c(C(C)NC(=O)CCC)nc2ccccc21 (stereo not given),-7%
COc1cc2nc(CN3C(=O)c4ccccc4C3=O)oc(=O)c2cc1OC,-4%
COc1ccc(NS(=O)(=O)c2ccc(NC(C)=O)cc2)cc1OC,-2%
COc1ccccc1-n1cnnc1SCC(=O)Nc1cccc(S(=O)(=O)N2CCCCC2)c1,-12%
O=C(CSc1ccc2nnc(-c3ccccn3)n2n1)Nc1ccc2c(c1)OCO2,5%
O=C(Nc1cccc(Cl)c1)Nc1nnc(CC2=CCCCC2)s1,-6%
Cc1cccc(-c2noc(Cc3ccccc3)n2)c1,-7%
COc1cc(C(=O)NCC(=O)N/N=C(/C)c2cccs2)cc(OC)c1OC,2%
CCNC(=O)CP(=O)(c1ccccc1)c1ccccc1,-4%
# (more compounds)
SMILES,HPGD block
CCc1ccc(C2C(C#N)=C(N)N(N(C)C)C3=C2C(=O)CCC3)s1 (stereo not given),-11%
O=C(O)c1c[nH]c2cc(OCc3ccccc3)ccc2c1=O,?
COc1ccc(Oc2cc(C(F)(F)F)cnc2C(N)=O)cc1,-3%
CC1(O)C(=O)c2ccccc2N(c2ccccc2)C1=O (stereo not given),-5%
COC(=O)C1=C(O)CSC1=Nc1cccc(C(F)(F)F)c1,-5%
O=C(Nc1ccccc1C(=O)O)c1ncn[nH]1,1%
COc1ccc(-c2noc(-c3ccccc3-c3ccccc3)n2)cc1,-5%
CCOc1ccc(OCCSc2nc3ccccc3o2)cc1,-22%
O=C(c1ccc(Cl)cc1)c1ccc(OCC(O)CN2CCCCC2)cc1 (stereo not given),-10%
N/C(=N\OC(=O)COc1ccc(Cl)cc1Cl)c1cccnc1,?
CCc1cccc(C)c1NC(=S)N(Cc1cccnc1)Cc1ccco1,-2%
Cc1ccc(C2CC(=O)C=C(O)C2)cc1 (stereo not given),-10%
CCOc1ccc(NC(=O)c2cnc3scc(C)n3c2=O)cc1,?
CCOc1ccc(C(=O)NC(=S)Nc2cccnc2)cc1,-3%
CCOc1c(Br)cc(C(N)=O)cc1OC,-13%
CCOc1ccc(C(=O)NN2C(=O)C3C4C=CC(O4)C3C2=O)cc1 (stereo not given),8%
Cc1ccccc1NC(=O)CSc1ccc(-c2ccco2)nn1,-12%
O=S(=O)(Nc1ccc2c(c1)nc1n2CCN(Cc2ccccc2)C1)c1ccc(Cl)cc1,-20%
Cc1[nH]c2ccc3c(ncn3CCC#N)c2c1C,-10%
CCc1ccc(C2=NNC(=Nc3cccc(S(=O)(=O)N(C)C)c3)SC2)cc1,-5%
CC(=O)OC(C)C,-1%
Cc1ccc(C)c2[nH]c(=O)c(CN(CCCN(C)C)C(=O)NCc3ccccc3)cc12,-14%
COc1ccc(C(=O)CCC(=O)O)c(C)c1,-8%
CCOC(=O)/C(=N\Nc1cccc(C(F)(F)F)c1)N(CCOC)CCOC,-8%
CCOCC(=O)Nc1ccc(C)c(Cl)c1,16µM*

# Quoted from the listing.
# Cc1ccc(C)c2[nH]c(=O)c(CN(CCCN(C)C)C(=O)NCc3ccccc3)cc12 @ HPGD block: -14%
# COc1ccc(-c2noc(-c3ccccc3-c3ccccc3)n2)cc1 @ HPGD block: -5%
# CCOc1ccc(C(=O)NN2C(=O)C3C4C=CC(O4)C3C2=O)cc1 (stereo not given) @ HPGD block: 8%
# CCc1cccc(C)c1NC(=S)N(Cc1cccnc1)Cc1ccco1 @ HPGD block: -2%
# COC(=O)C1=C(O)CSC1=Nc1cccc(C(F)(F)F)c1 @ HPGD block: -5%

# Continuation:
SMILES,HPGD block
CCN1CN=C(NS(=O)(=O)c2ccc(C)cc2)NC1,-2%
COc1ccc(OC)c(C2=Nn3c(nnc3-c3ccco3)SC2)c1,28µM*
Cc1ccc(NC(=O)/C(C#N)=C/c2ccsc2)c(C)c1,-9%
CCOC(=O)c1csc(NC(=O)Nc2cccc(Cl)c2)n1,-5%
CCOc1ccc(N=Cc2c(O)c3ccccc3oc2=O)cc1,-13%
Cc1ccc(NC2=C(CC(=O)O)C(c3ccccc3)N(c3ccc(C)cc3)C2=O)cc1 (stereo not given),-15%
CCCCOc1ccc(C(C)NC(=O)C2CCCN(S(=O)(=O)CC)C2)cc1 (stereo not given),-2%
CCOC(=O)C1=C2SCCN2C(=O)C(C#N)C1(C)C (stereo not given),-13%
Cc1ccc(-c2nc(CS(=O)CC(=O)NC3CCCC3)c(C)o2)cc1 (stereo not given),-30%
Cn1cccc1C(=O)OCc1csc(-c2ccccc2)n1,-23%
CCc1c(C)nc2ccc(Br)cc2c1Cl,-18%
Cc1ccc(C2CC(c3ccccc3)=NN2C(=O)CSc2nnc(-c3ccncc3)n2C)o1 (stereo not given),-6%
Cc1cc(S(=O)(=O)NCC(=O)O)ccc1F,-4%
O=C1/C(=C\c2ccc(Br)o2)SC(=Nc2ccccc2)N1c1ccccc1,-11%
COc1ccc(S(=O)(=O)N2CCC(C(=O)N3CCc4ccccc4C3)CC2)cc1,35µM*
Cc1cc2ccccc2c(=O)[nH]1,-17%
O=C(c1cccc(Cl)c1)N1CCCC(C(=O)N2CCCCCC2)C1 (stereo not given),-15%
CCCCN(C(=S)NC(=O)c1cc(OC)c(OC)c(OC)c1)c1c(N)n(Cc2ccccc2)c(=O)[nH]c1=O,-8%
Cn1c(COc2ccccc2)nnc1SCC(=O)Nc1ccc(S(N)(=O)=O)cc1,-3%
COc1ccccc1NS(=O)(=O)c1ccc(N/N=C(\C)C(C)C)c([N+](=O)[O-])c1,-13%
O=C1C2ON(c3ccc(Br)cc3)C(c3cccnc3)C2C(=O)N1C1CCCCC1 (stereo not given),-1%
Cc1ccc2c(c1)C1(OCCO1)C(=O)N2,-2%
CC(C)N(c1ccccc1)c1ncnc(NCCC(=O)O)c1[N+](=O)[O-],-3%
COc1ccc(NC(=O)CSc2nnc(Cc3ccccc3)o2)c(OC)c1,-13%
COC(=O)c1ccc(N=NNc2ccccc2)cc1,25µM*
# Carrying on.
SMILES,HPGD block
CCCCNC(=S)NNC(=O)c1nn(C)cc1Cl,-9%
Cc1cc(=O)[nH]c(SCC(=O)Nc2nc(-c3ccccc3)cs2)n1,-21%
O=C(C1CCN(S(=O)(=O)c2cccc3cccnc23)CC1)N1CCN(c2ccccc2)CC1,-1%
COc1cc(/C=C/C(=O)C2C(=O)C=C(C)OC2=O)cc(OC)c1O (stereo not given),-8%
c1ccc(-c2nnc3sc(-c4ccncc4)nn23)cc1,-14%
COC(=O)C1=C(N)Oc2cc(C)n(Cc3ccccc3)c(=O)c2C1c1ccccc1 (stereo not given),-23%
C=CCn1c(=O)c2ccc(C(=O)NCc3ccccc3)cc2n(Cc2cccc(Cl)c2)c1=O,?
O=C(COC(=O)c1ccccc1)Nc1cccc(S(=O)(=O)NC2=NCCCCC2)c1,-9%
COc1cccc(NC(=O)Cn2c(=O)n(CCCC(=O)NCc3ccco3)c(=O)c3ccccc32)c1,-9%
CS(=O)(=O)N(CC(=O)N1CCc2ccccc2C1)Cc1ccccc1,-4%
CCNC(=O)NC(=O)CSc1ccc(NC(C)=O)cc1,-10%
CC(=O)N1CCC2(CC1)C(C#N)=C(N)Oc1n[nH]c(CSc3ccc(C)cc3)c12,-2%
CS(=O)(=O)c1sc2nc(-c3ccccc3)cc(-c3ccccc3)c2c1N,?
CCC(=O)N1CCc2cc(S(=O)(=O)CCC(=O)Nc3ccc(C)c(F)c3)ccc21,-7%
CC(=O)OCC(=O)[C@@]1(O)CC[C@H]2[C@@H]3CCC4=CC(=O)CC[C@]4(C)[C@@H]3C(=O)C[C@@]21C,-2%
Cc1cc(C)c(S(=O)(=O)N(C2=NCCS2)S(=O)(=O)c2c(C)cc(C)cc2C)c(C)c1,-5%
O=C(c1cc(C(F)(F)F)cc(C(F)(F)F)c1)N1CCC[C@@]2(CCN(c3ccncc3)C2)C1,-3%
O=C1CC(c2cccs2)Sc2nc3ccccc3n21 (stereo not given),?
COc1ccc(N2CCN(c3nc4ccccc4nc3NS(=O)(=O)c3ccccc3)CC2)cc1,-4%
CCOC(=O)c1sc(NC(NC(=O)c2ccco2)(C(=O)OC)C(F)(F)F)nc1C (stereo not given),-30%
COc1ccccc1N1CCN(S(=O)(=O)c2ccc(Cl)s2)CC1,2%
Cn1ccnc1SCc1cc(=O)[nH]c2ccccc12,-2%
CCOC(=O)CC1ON(C)C(=O)N1c1ccc([N+](=O)[O-])cc1 (stereo not given),-10%
O=C(CSc1ncc(-c2ccc(F)cc2)[nH]1)Nc1cccc(O)c1,-11%
O=c1nc(/C=C/c2ccc(-c3ccc(F)cc3)o2)cc(C(F)(F)F)[nH]1,?
# (listing goes on)
SMILES,HPGD block
Cc1ccc(N2C(=O)c3cccc(Oc4ccc(Cl)cc4)c3C2=O)c(C)c1,-24%
O=C(Cc1cccs1)Nc1nnc(CCc2ccccc2)s1,-9%
N#Cc1c(/N=C/c2ccco2)sc2c1CCC2,-7%
N#Cc1c(-c2cccc(Br)c2)cc(-c2cccnc2)nc1N,?
Cc1ccc(CN(CC(=O)NCCc2ccccc2)C(=O)CCCC(=O)Nc2cc(C)on2)cc1,1%
CCOC(=O)c1cnn(-c2ccccc2)c1NC(=O)CSc1nnc(-c2cccs2)n1CC,-4%
CCOC(=O)CSc1nnc(CNc2ccc(Cl)cc2)n1-c1ccccc1,-11%
CC(C)CC(NC(=O)c1ccc(Cl)cc1)C(=O)O (stereo not given),-3%
CC(C)(C)c1ccc(SCC(N)=O)cc1,-14%
CCNC(=S)NCCN1CCOCC1,-1%
CCCCN1C2CCCC1CC(NC(=O)c1ccc(OC)c(OC)c1)C2 (stereo not given),-4%
CCc1cc2ccc(C)cc2nc1SCC(=O)N1CCN(C(=O)c2ccco2)CC1,?
CCCCN1Cc2cc(C(=O)c3cc(F)ccc3O)cnc2NC1=O,?
COc1ccc(-c2coc3cc(O)cc(O)c3c2=O)cc1,-21%&-10%
CCOC(=O)c1cc2c(ccn2C)n1CC(=O)N1CCC(C)CC1,-6%
CCc1nc(N)c(C#N)c(-c2ccccc2OC)c1C,-27%
COc1ccc(C2NC(=O)CS2)cc1OC (stereo not given),0%
CCc1ccc(OCC(=O)N/N=C(\C)c2ccc3c(c2)OCCO3)cc1,-9%
Cc1cccc(-c2n[nH]c([N+](=O)[O-])n2)c1,-22%
Oc1ccc(Cc2cc(Cl)cc(Cl)c2O)cc1Cl,-13%
O=C(Nc1ccc(S(=O)(=O)Nc2ccc(Cl)cc2)cc1)C1CCCO1 (stereo not given),1%
Cc1ccc(N2CC(C(=O)Oc3cccc(N4C(=O)CCC4=O)c3)CC2=O)cc1 (stereo not given),-5%
Cn1c(SCc2ccccc2)nnc1-c1ccncc1,-9%
CCn1c(SCC(=O)c2ccccc2)nnc1-c1cccs1,-25%
COc1ccc(-c2nc(S(=O)(=O)c3ccc(C)cc3)c(N3CCCC3)o2)cc1,-2%

# Entries listed so far marked active in HPGD block:
SMILES,HPGD block
CCOCC(=O)Nc1ccc(C)c(Cl)c1,16µM*
COc1ccc(OC)c(C2=Nn3c(nnc3-c3ccco3)SC2)c1,28µM*
COc1ccc(S(=O)(=O)N2CCC(C(=O)N3CCc4ccccc4C3)CC2)cc1,35µM*
COC(=O)c1ccc(N=NNc2ccccc2)cc1,25µM*

# Next section:
SMILES,HPGD block
CCOc1ccccc1NC(=O)Cc1coc2cc(C)ccc12,-14%
COc1ccc(C2(CNC(=O)c3cccc([N+](=O)[O-])c3)CCOCC2)cc1OC,-9%
CC1CCc2cc(F)cc3c(O)c(C(=O)NCc4ccco4)c(=O)n1c23 (stereo not given),-15%
Cc1n[nH]c(C)c1CCCOc1ccccc1,-1%
O=C(CNC(=O)c1ccccc1)OCC(=O)N1c2ccccc2Sc2ccccc21,-19%
Cc1c(Cl)c([N+](=O)[O-])nn1Cc1ccc(C(=O)N/N=C\c2cccc(Br)c2)o1,-2%
Cn1c(=O)[nH]c(=O)c2c1nc(NCc1ccccc1)n2CC(O)c1ccccc1 (stereo not given),-9%
Cc1ccc(S(=O)(=O)O)cc1C,-3%

# Part of the list above, reformatted.
SMILES	HPGD block
Cn1c(COc2ccccc2)nnc1SCC(=O)Nc1ccc(S(N)(=O)=O)cc1	-3%
COc1ccccc1NS(=O)(=O)c1ccc(N/N=C(\C)C(C)C)c([N+](=O)[O-])c1	-13%
O=C1C2ON(c3ccc(Br)cc3)C(c3cccnc3)C2C(=O)N1C1CCCCC1 (stereo not given)	-1%
Cc1ccc2c(c1)C1(OCCO1)C(=O)N2	-2%
CC(C)N(c1ccccc1)c1ncnc(NCCC(=O)O)c1[N+](=O)[O-]	-3%
